# High-throughput results: PubChem BioAssay, SRMLSC
# H5N1 CPE – MDCK cell protection from H5N1 avian flu. 0.07% of 96,000 active. inhibition, % at 50 µM. AID 740, 2007. cytopathic effect, luminescence, 72 h; stronger effect = higher value; no value below 0 was filed and about half of the inactive calls have no number; reference of the scale not given here; in the data active = inhibition above about 25%
# Active calls of the source: *; i = inactive.
SMILES,H5N1 CPE
O=C(COc1ccc2c(c1)CCC2)N1CCc2ccccc21,0.5
COCCNC(=O)CNC(=O)c1nn(-c2ccc(OC)c(Cl)c2)c(=O)c2ccccc12,0.2
O=C(C1CCCN(S(=O)(=O)c2cccs2)C1)N1CCC(N2CCCCC2)CC1 (stereo unspecified),0.6
CC(C)(C)N1C(=O)c2ccc(C(=O)O)cc2C1=O,i
Cc1cc(C(=O)OCC(=O)Nc2ccc(F)cc2)c(C)o1,0.5
COc1ccc(OC)c(C2C(C(C)=O)=C(O)C(=O)N2CCC(=O)O)c1 (stereo unspecified),0.4
CCCCC(=O)Nc1ccc(N2CCN(C(=O)CC)CC2)cc1,0.7
COc1ccc(/C=C/C(=O)Nc2nc(C)cc(C)n2)cc1OC,1.7
COc1ccc(CCCc2nnc(SCC(=O)Nc3nc(C)cs3)n2C)cc1,1.0
COc1ccc(C2=C(O)C(C)N(c3ccccc3)C2=N)cc1OC (stereo unspecified),i
Cc1cc(C)nc(NS(=O)(=O)c2ccc(Br)s2)c1,0.3
COc1ccc(S(=O)(=O)N2Cc3ccccc3CC2C(=O)Nc2nccs2)cc1OC (stereo unspecified),i
CCCn1c(-c2ccc(OC)cc2)nc2nc3ccccc3nc21,1.9
Cc1cc(C)c2c(N)c(C(=O)N3CCN(c4ncccn4)CC3)sc2n1,i
Cc1ccc(NS(=O)(=O)c2cn(C)cn2)cc1,i
O=C1CCCCCN1C(=O)c1cccc(C(=O)N2CCCCCC2=O)c1,0.5
O=C(O)CCC(=O)OCC1CCCO1 (stereo unspecified),i
COc1ccc(C)cc1-n1nnnc1SCC1CCCCO1 (stereo unspecified),0.1
CC(C)OC(=O)c1cc(NC(=O)C2C3CCC(O3)C2C(=O)O)cc(C(=O)OC(C)C)c1 (stereo unspecified),0.9
O=c1c2[nH]c3ccccc3c2ncn1CCN1CCNCC1,0.3
Cc1ccc(NS(=O)(=O)c2cc(C(=O)NCCSC3CCCCC3)ccc2C)cc1,i
Cc1ccc(C(=O)Nc2ccon2)cc1S(=O)(=O)N1CCCC1,i
c1cc(Nc2ncnc3sccc23)cc(-c2nnc3n2CCCCC3)c1,i
Cc1ccc(-c2ccc(/C=N/NC(=O)CN3CCCC3)o2)cc1Cl,i
CNC(=O)c1[nH]cnc1C(=O)Nc1cccc(OC)c1,0.4

# Overlap with the part before: 6 entries, followed by the next part.
SMILES,H5N1 CPE
O=c1c2[nH]c3ccccc3c2ncn1CCN1CCNCC1,0.3
Cc1ccc(NS(=O)(=O)c2cc(C(=O)NCCSC3CCCCC3)ccc2C)cc1,i
Cc1ccc(C(=O)Nc2ccon2)cc1S(=O)(=O)N1CCCC1,i
c1cc(Nc2ncnc3sccc23)cc(-c2nnc3n2CCCCC3)c1,i
Cc1ccc(-c2ccc(/C=N/NC(=O)CN3CCCC3)o2)cc1Cl,i
CNC(=O)c1[nH]cnc1C(=O)Nc1cccc(OC)c1,0.4
CSc1nc(Cl)cc(N(CCO)CCO)n1,i
COc1cc(SC)ccc1C(=O)N(C)Cc1ccccc1,i
CCOC(=O)CSc1nc2cc(C)ccc2cc1C#N,i
COc1ccc(NCc2ccc3c(c2)OCO3)cc1Cl,i
CN(C)c1oc(-c2ccccc2Cl)nc1S(=O)(=O)c1ccccc1,2.3
CCOC(=O)c1ccc2c(c1)nc(SCC(=O)c1ccco1)n2CC,i
Cc1cc(C)n2nc(SCN3C(=O)c4ccccc4C3=O)nc2n1,0.2
CS(=O)(=O)N(CC(=O)N1CCOCC1)c1ccc2c(c1)OCO2,i
CCCCCCCCCCNC(=O)C(=O)Nc1ccccn1,i
CCOC(=O)/C(C#N)=C1/C=C(C)NC(c2ccccc2O)=N1,i
Cc1ccc(Cn2ncc3c(N4CCN(c5ccc(C)cc5)CC4)ncnc32)cc1,1.8
CC(C)(C)NC(=O)CSc1nnc(-c2ccccn2)n1-c1ccccc1,0.7
O=S(=O)(/C=C/c1ccccc1)NCCc1ccccn1,0.4
Cc1nc(NNC(=O)c2ccccc2)cc(-c2ccccc2)n1,i
O=C(CSc1cccs1)Nc1ccc2ccccc2c1,i
O=C(CCCOc1ccccc1)N1CCN(c2ccccc2)CC1,i
CC(=O)NCC(=O)OCC(=O)c1ccccc1,i
Cc1ccc2c(c1)c(C)c(C)n2CC(O)Cn1nc(C)cc1C (stereo unspecified),i
O=C(Nc1cc(N2CCOCC2)ncn1)NC1(C(F)(F)F)Oc2ccc(Cl)cc2O1 (stereo unspecified),0.2
O=C(Nc1cccnc1)c1ccc(COCC(F)(F)F)cc1,0.1
Cc1ccc(-n2nc(C(=O)N3CCOCC3)cc2-c2ccc(Cl)cc2)cc1,1.2
COCCn1c(SCC(=O)Nc2cccc(C(=O)OC)c2)nc2ccccc2c1=O,i
Cc1coc2c1c(C)cc1oc(=O)c(Cc3ccccc3)c(C)c12,i
Cc1nn(CCC(=O)O)c2nc(-c3cccnc3)cc(C(F)(F)F)c12,0.9
CC(=O)Nc1ccc(S(=O)(=O)n2cnc3ccccc32)cc1,i

# Going on with the list:
SMILES,H5N1 CPE
CCOc1ccccc1N1CC(O)=C(c2nc3ccccc3s2)C1=N,i
CN1C(=O)/C(=N/OC(=O)c2ccccc2)c2ccccc21,i
CC1=CC(C)C(/C=N/n2cnnc2)C(C)C1 (stereo unspecified),i
COc1ccc(S(=O)(=O)NNC(=O)c2csc(-n3nc(C)cc3C(F)(F)F)n2)cc1OC,1.1
COC(=O)c1ccc(C)c(N(CCO)CCO)c1,i
COc1ccc2[nH]cc(C(=O)CN3CCN(C4CCCCC4)CC3)c2c1,0.1
COc1nc(N2CCOCC2)nc(-n2cccc2)n1,2.3
CCOC(=O)/C=C1\NC(C)(C)Cc2cc(OC)c(OC)cc21,i
CCN1CCN(C(=O)CCN2C(=O)COc3ccc(C)cc32)CC1,0.6
CC12CC(NC(=O)N1c1cccc(C(=O)N3CCN(c4ccccc4)CC3)c1)c1ccccc1O2 (stereo unspecified),1.7
CCOCCCNC(=O)NC12CC3CC(CC(C3)C1)C2,0.1
c1ccc2nc(-c3ccc(N4CCOCC4)cc3)ccc2c1,i
CCSC1=C(C#N)C2(CCCCC2)C(C#N)=C(N)N1,i
COC(=O)CNC(=O)c1ccc(C)s1,0.2
Cn1nc([N+](=O)[O-])c2c(-c3nc4ccccc4s3)c(N)n(C3CCCCC3)c2c1=O,0.4
O=C(CCc1nc2ccccc2[nH]c1=O)OCC(=O)c1cccc2ccccc12,0.2
CCCCCCCSc1cc(OC)c(CCNC)cc1OC,i
COc1cc(C(=O)N2CCN(C(=O)C(Cc3cc(C)ccc3C)NC(C)=O)CC2)cc(OC)c1OC (stereo unspecified),0.5
CN1CCN(C(=O)CCC(=O)c2ccc(F)cc2)CC1,i
CC(C)CNC(=O)NC(=O)COc1c(F)c(F)cc(F)c1F,i
CC(C)C[C@H](NC(=O)NCCc1ccc(Cl)cc1)C(=O)O,i
CCOC(=O)C1=C(c2ccccc2)Nc2nc(C)nn2C1c1cccc(OC)c1OC (stereo unspecified),0.3
CCCC(c1nnnn1C(C)(C)CC)N1CCN(C2CCCC2)CC1 (stereo unspecified),1.1
CN1CCN(C(=O)C(C(=O)c2ccc(F)cc2)n2ccccc2=O)CC1 (stereo unspecified),i
CC(C)(C)C(=O)Nc1ccc(N2CCCC2)cc1,i

# Other structures:
SMILES,H5N1 CPE
Cc1cc(NC(=O)CSc2nc(C(C)C)nc3ccccc23)no1,i
COc1ccc(NS(=O)(=O)c2ccc(N3C(=O)CCC3=O)cc2)cc1,0.2
Cc1cc2c(s1)c1cnn(Cc3ccccc3F)c(=O)c1n2C,i
c1ccc(-n2cnnc2SCc2cn3ccccc3n2)cc1,1.8
O=C(CSc1nnc(Cc2cc(=O)[nH]c(=O)[nH]2)n1-c1ccc(F)cc1)NC1CCCC1,i
Cc1ccc(C)c(NC(=S)NC(NC(=O)/C=C/c2ccccc2)C(Cl)(Cl)Cl)c1 (stereo unspecified),i
CN1CCOCCOCCN(C)C(=O)N2CCOCCOCCN(CCOCC2)C1=O,1.1
O=S(=O)(Cc1ccc(Cl)cc1)NCC1CCCO1 (stereo unspecified),i
c1cncc(C2CC(c3cccs3)n3ncnc3N2)c1 (stereo unspecified),i
COc1ccc(/C=N/n2c(C)nnc2C)c(OC)c1OC,i
CCN1CCN(C(=O)CN(c2cc(OC)ccc2OC)S(C)(=O)=O)CC1,0.1
Cn1c(=O)c2c(ncn2Cc2ccc(Cl)c(Cl)c2)n(C)c1=O,1.2
Clc1ccc(CO/N=C/c2c(-c3ccccc3)nc3n2CCS3)c(Cl)c1,7.7
CCO/N=C(/c1nonc1N)N1CCN(c2ccc([N+](=O)[O-])cc2)CC1,i
N#Cc1c(NC(=O)Cn2c(=O)oc3ccccc32)oc(-c2ccccc2)c1-c1ccccc1,0.2
Cn1c(Cc2ccc3c(c2)OCO3)nnc1SCC(=O)N1CCc2ccccc2C1,1.2
CC(=NC1CC1)c1c(-c2ccccc2)[nH]n(-c2nc3ccccc3s2)c1=O,8.1
O=C(NCc1ccc(F)cc1)c1ccc(CS(=O)(=O)Cc2ccccc2F)o1,i
O=C(NC(Cc1ccccc1)C(=O)OCC(=O)N1CCc2ccccc21)c1ccco1 (stereo unspecified),i
Cc1cc(C2C(C#N)=C(N)OC3=C2C(=O)CCC3)c(C)s1 (stereo unspecified),i
O=C(NCCSCc1ccco1)c1ccc(CN2CCOCC2)cc1,0.5
Cc1ccc(-c2nnc(SCc3nc4ccccc4[nH]3)n2Cc2ccco2)cc1,0.3
CN(C)C1(c2nnnn2-c2ccc(Cl)cc2)CCCCC1,3.3
Cc1c(Cl)cccc1NC(=O)CSc1nnc(CCNC(=O)OC(C)(C)C)o1,0.6
COc1ccc(OC)c(C2C(C(N)=O)=C(C)Nc3nc(CCCO)nn32)c1 (stereo unspecified),0.6

# Copied from the list:
# H5N1 CPE, COc1ccc(OC)c(C2C(C(C)=O)=C(O)C(=O)N2CCC(=O)O)c1 (stereo unspecified) : 0.4
# H5N1 CPE, Cn1c(=O)c2c(ncn2Cc2ccc(Cl)c(Cl)c2)n(C)c1=O : 1.2
# H5N1 CPE, CCOCCCNC(=O)NC12CC3CC(CC(C3)C1)C2 : 0.1
# H5N1 CPE, Cc1nn(CCC(=O)O)c2nc(-c3cccnc3)cc(C(F)(F)F)c12 : 0.9
# H5N1 CPE, O=C(Nc1cc(N2CCOCC2)ncn1)NC1(C(F)(F)F)Oc2ccc(Cl)cc2O1 (stereo unspecified) : 0.2
# H5N1 CPE, Cc1c(Cl)cccc1NC(=O)CSc1nnc(CCNC(=O)OC(C)(C)C)o1 : 0.6

# Remaining list, next part
SMILES,H5N1 CPE
O=C(CN1CCC(n2nnc3cc(F)ccc32)CC1)N1CCc2ccccc2C1,i
COc1ccccc1NC(=O)CSc1nnc(Cn2cnc3ccccc32)n1C,1.3
O=S(=O)(NC(=NC1CCCC1)C(F)(F)F)c1ccccc1,0.2
O=C1OCc2cccc3cccc1c23,1.3
CCOc1cc(C)c(S(=O)(=O)N2CCCC2)cc1C,i
CC1Cc2nc(SCC(=O)Nc3nc4ccccc4s3)n(C)c(=O)c2S1 (stereo unspecified),3.3
COCCN1Cc2cccc(C(=O)Nc3c(C)cccc3C)c2C1=O,0.4
Cc1ccc(NC(=O)CCC(=O)NNC(=O)c2ccco2)cc1C,i
CCC12CN3CC(CC)(CN(C1)C3c1c(O)ccc3ccccc13)C2=O (stereo unspecified),0.6
Cc1cc(C(=O)Nc2c(F)cc(F)cc2Br)no1,i
S=c1nc(-c2ccccc2)n(CCCn2ccnc2)c2c1CCCC2,0.7
O=S(=O)(NCc1ccco1)N1CCOCC1,i
O=C(O)c1ccc2noc(-c3ccccc3)c2c1,1.7
N#Cc1cc2c(nc1SCC(=O)N1CCCCC1)CCCCC2,2.0
Cc1[nH]c2ccccc2c1[C@H]1[C@@H](CC#N)C1(C)C,1.0
CC(C)C(c1nnnn1C1CCCC1)N1CCc2ccccc21 (stereo unspecified),2.5
COc1cccc(C(=O)NC2CCN(C(=O)N3c4ccccc4Sc4ccccc43)CC2)c1,i
O=c1/c(=C/c2cn(-c3ccccc3)nc2-c2ccc(F)cc2)sc2nc3ccccc3n12,i
CCOC(=O)N1CCC(Nc2c(-c3ccc(C)c(C)c3)c(=O)c2=O)CC1,i
N#Cc1nc(-c2ccco2)oc1NCc1ccc(F)cc1,0.1
CCCN1CCN(CCCNC(=O)Cn2cc3c(n2)CCCC3)CC1,i
CC(C)Oc1ccc(C(=O)NC(C)(C)CO)cc1,0.4
CCn1c(=O)c2ccccc2n2c(SCC(=O)NCc3cccs3)nnc12,1.9
CCOc1ccc(N=C(NC#N)SCC(=O)NC2CC2)cc1,i

# Among those listed so far, 9 contain two or more sulfur atoms.
SMILES,H5N1 CPE
O=C(C1CCCN(S(=O)(=O)c2cccs2)C1)N1CCC(N2CCCCC2)CC1 (stereo unspecified),0.6
COc1ccc(CCCc2nnc(SCC(=O)Nc3nc(C)cs3)n2C)cc1,1.0
Cc1cc(C)nc(NS(=O)(=O)c2ccc(Br)s2)c1,0.3
COc1ccc(S(=O)(=O)N2Cc3ccccc3CC2C(=O)Nc2nccs2)cc1OC (stereo unspecified),i
Cc1ccc(NS(=O)(=O)c2cc(C(=O)NCCSC3CCCCC3)ccc2C)cc1,i
O=C(CSc1cccs1)Nc1ccc2ccccc2c1,i
COc1ccc(S(=O)(=O)NNC(=O)c2csc(-n3nc(C)cc3C(F)(F)F)n2)cc1OC,1.1
CC1Cc2nc(SCC(=O)Nc3nc4ccccc4s3)n(C)c(=O)c2S1 (stereo unspecified),3.3
CCn1c(=O)c2ccccc2n2c(SCC(=O)NCc3cccs3)nnc12,1.9

# Some of the compounds tested (hit frequency here may not be typical).
